Bioassay records from PubChem.
GLA inh pH 4.5: blocks human alpha-galactosidase A at pH 4.5; P06280; purified enzyme, 4-MU-alpha-Gal fluorescence, pH 4.5; activity change, negative = inhibition, % at 105 µM; 230,000 tested, under 10 active; AID 1467; inconclusive = small, poorly fitted or top-dose-only inhibition, or a rising curve; inactive = flat fitted curve, though single readings scatter; no compound was filed as active;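 further: 0% = full activity with enzyme and -100% = basal without enzyme; dose as in the result columns while the protocol names 77 µM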
Target sequence (P06280 whole entry, looked up): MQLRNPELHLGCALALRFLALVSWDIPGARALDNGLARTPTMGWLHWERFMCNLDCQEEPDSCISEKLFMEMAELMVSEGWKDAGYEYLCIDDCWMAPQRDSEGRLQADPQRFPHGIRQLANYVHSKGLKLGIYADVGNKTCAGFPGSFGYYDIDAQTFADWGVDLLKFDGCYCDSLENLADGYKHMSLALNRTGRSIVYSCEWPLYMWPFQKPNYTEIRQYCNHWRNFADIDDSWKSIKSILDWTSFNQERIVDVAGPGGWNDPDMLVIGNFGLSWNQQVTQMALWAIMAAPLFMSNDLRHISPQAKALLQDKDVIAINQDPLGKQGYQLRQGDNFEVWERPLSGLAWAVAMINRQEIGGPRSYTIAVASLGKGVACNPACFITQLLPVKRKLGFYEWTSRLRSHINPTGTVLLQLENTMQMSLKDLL
Rango complex inh: inhibitors of Rango-importin beta complex formation; Q14974; Rango CFP/YFP FRET sensor + importin beta, 45 min; Potency, µM (top dose mostly 92.2 µM), inactives show top-dose inhibition of complex formation; actives 0.031% (n = 340,000); AID 540263; active = rising FRET ratio curve, often small or poorly fitted; inconclusive = mostly compound fluorescence or quenching in the first reads; inactive = flat curves in all reads;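 further: potency means the concentration at half of the fitted maximal effect; 0% = DMSO wells and 100% = buffer wells lacking importin beta; nearly all actives have a fitted effect of over 15% in size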
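Inhibition scored from the CFP 486 nm/YFP 530 nm FRET ratio 45 min after adding 0.125 microM importin beta to 50 nM Rango biosensor preincubated 5 min with compound (room temperature, PBS with DTT, Tween-20, BSA). No-importin wells as positive control.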
Rango release inh: inhibition of RanGTP-driven Rango-importin beta dissociation | Potency, µM (top dose mostly 46.1 µM), for the others: at the highest dose activity change, negative = inhibition | O95149+P62826 | actives 0.071% (n = 340,000) | Biochemical FRET Rango-importin beta, RanGTP-induced dissociation; active means falling FRET ratio curve, often poorly fitted, with flat reads before Ran was added; inconclusive means other falling curves, or compound fluorescence or quenching; inactive means flat or rising ratio curve;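 further: potency means the concentration at half of the fitted maximal effect; % of control where 0% means no effect; nearly all actives have a fitted effect of over 45% in size; -100% = wells without RanGTP and RCC1; the record marks most hits as doubtful in a second field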
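Rango (0.1 uM)–importin beta (0.25 uM) complex; RanGTP-RCC1 trigger; 45 min RT; CFP/YFP FRET read.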
miR-21 reporter: miR-21 reporter, rising signal; HeLa miR-21 FLuc reporter, luciferase, 48 h; Potency, µM (doses to about 38.3 µM), inactives show at the highest dose reporter change, positive = more light; 340,000 tested, under 10 active; AID 2288; active = well fitted rising curve with a large enough effect; inconclusive = small, poorly fitted or top-dose-only effect; inactive = no such curve, though single readings can be large or run the other way;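 further: % of control where 0% means no effect; miR-21 action dims this reporter so a rising signal means less miR-21 action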
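Compounds were titrated across several concentrations (up to approximately 40 uM) and incubated 48 hours with HeLa miR-21-FLuc reporter cells (miR-21 target sequence downstream of FLuc, endogenous miR-21). Readout was firefly luciferase luminescence after lytic detection reagent.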
* marks the source's active call; other numbers are inactive results; ? = inconclusive; . = no result given; & = joins results of further samples; [ ] = dose if it differs, or a comment.

Every second line gives: GLA inh pH 4.5, Rango complex inh, Rango release inh, miR-21 reporter
[1] Cn1nc(-c2ccccc2)c2cc(C(=O)O)sc21
  -3, 1.1%, 13%, 0%
[2] COc1cc(/C=N/NC(=O)COc2ccc(Cl)cc2)ccc1OS(=O)(=O)c1ccc(C)cc1
  -14, 0.3%, -6%, 11%
[3] O=C(c1ccco1)N1CCN(C(c2ccccc2Cl)c2nnnn2CC2CCCO2)CC1 (centres undefined)
  2, 0.9%, 1%, -4%
[4] Cc1ccc(-n2ncc3c2CC(C)(C)CC3NC(=O)CCc2cccnc2)cc1 (centres undefined)
  ., 0.4%, 3%, -1%
[5] Cc1ccc(/C=C/C(=O)NCCc2ccccc2)o1
  ., ?, -11%, -40%
[6] CCc1ccc2c(CN3CCc4cc(OC)c(OC)cc4C3)cc(=O)oc2c1
  -7, ?, ?, -12%
[7] Cc1ccc(-n2c(C)nc3ccsc3c2=O)cc1
  ., -0.1%, 2%, .
[8] Cc1cc(OCC(=O)Nc2ccc(F)c(F)c2)nc(C(C)C)n1
  3, -6.9%, 20%, 10%
[9] O=C(O)/C=C/C(=O)NCCCc1ccccc1
  5, -0.3%, 1%, -1%
[10] CCNC(=S)Nc1ccc(S(=O)(=O)Nc2cc(C)nc(C)n2)cc1
  4, 0.6%, 7%, -1%
[11] CN(C(=O)c1cccc(NC(=O)Cc2ccc(NC(=O)C3CCN(C(=O)c4ccccc4)CC3)cc2)c1)C1CCCC1
  ., 1.1%, 13%, .
[12] Cc1cc(C)c(-n2nnnc2SCC(=O)c2cccs2)c(C)c1
  -6, ?, 0%, 1%
[13] COc1ccc2cc3c(N)nn(C(=O)Cc4c[nH]c5ccccc45)c3nc2c1
  -6, -3.7%, -9%, ?
[14] COC(=O)CCS(=O)(=O)c1ccc(Cl)cc1
  0, 0.3%, -18%, -1%
[15] O=C(COC(=O)/C=C/c1ccc(Cl)cc1)NC(=O)NCc1ccccc1
  ., 4.1%, 1%, .
[16] CN(C)/C=N/c1nc2nccc(-c3ccc(Cl)cc3)n2n1
  13, 0.0%, 0%, -1%
[17] Cc1onc(-c2ccccc2)c1C(=O)N1CCN(C)CC1
  9, -12%, 11%, -1%
[18] COc1cccc(CNC(=O)CN2CCC(c3nc4ccc(C)cc4[nH]3)CC2)c1
  6, 0.7%, 27%, -30%
[19] COc1cc(SC)ccc1C(=O)Nc1ccccc1
  0, 0.3%, -11%, -55%
[20] O=C(Cn1[nH]c(=O)c2ccccc2c1=O)OCC(=O)N1CCc2ccccc2C1
  4, -1.7%, -7%, 2%
[21] CCCCCCC[N+](CC)(CC)CCCCc1ccc(Cl)cc1
  5, -0.5%, -11%, .
[22] Cc1ccc(CNC(=O)Cn2cnc(S(=O)(=O)N3CCC(C)CC3)c2)o1
  ., -4.0%, -25%, 0%
[23] COc1ccccc1CCC(=O)N(C)C1CCCN(Cc2ccccc2F)C1 (centres undefined)
  ., 1.1%, 23%, 4%
[24] CCCCCN(C(=O)CCC(=O)OCC(=O)Nc1cccc(SC)c1)c1c(N)n(CCCC)c(=O)[nH]c1=O
  ., -2.9%, -3%, .
[25] COc1ccc(CC/C(=N\O)C2(O)CCCCC2)cc1
  8, -0.7%, 1%, -17%
[26] CC(C)CN1CCN(Cc2nc(C(C)C)cs2)CC1CCO (centres undefined)
  1, 0.6%, 16%, 0%
[27] CCc1nnc(N2C(=O)c3ccccc3C2(O)c2ccccc2)s1 (centres undefined)
  6, -0.5%, 7%, 4%
[28] CN(C)CCCNc1c2ccccc2nc2ccccc12
  ., ?, ?, 29%
[29] COc1ccc(Cl)cc1C(=O)CSc1nnnn1C
  7, 3.4%, -16%, -9%
[30] COc1ccc(OC)c(C(=O)c2ccc(C(=O)N3CCN(Cc4csc(C)n4)CC3)cc2)c1
  2, 0.9%, -15%, 5%

Pulled by compound from the entries so far:
Every second line gives: GLA inh pH 4.5, Rango complex inh, Rango release inh, miR-21 reporter
[28] CN(C)CCCNc1c2ccccc2nc2ccccc12
  ., ?, ?, 29%
[16] CN(C)/C=N/c1nc2nccc(-c3ccc(Cl)cc3)n2n1
  13, 0.0%, 0%, -1%
[27] CCc1nnc(N2C(=O)c3ccccc3C2(O)c2ccccc2)s1 (centres undefined)
  6, -0.5%, 7%, 4%

(more compounds)
Every second line gives: GLA inh pH 4.5, Rango complex inh, Rango release inh, miR-21 reporter
[31] COc1ccc(-c2cc3cc(OC)c(OC)cc3cn2)cc1OC
  ., -1.5%, 14%, .
[32] CCCCN(C)CCN1C(=O)C2C(C(=O)Nc3ccc(Cl)cc3)C3C=CC2(O3)C1C(=O)NC1CCCCC1 (centres undefined)
  ., 0.0%, -13%, -1%
[33] COc1ccc(CCNC(=O)CSCc2ccc(F)cc2)cc1OC
  4, -1.2%, 1%, -8%
[34] O=C(Nc1ccc(N2CCN(C(=O)c3ccccc3)CC2)cc1)c1ccc([N+](=O)[O-])o1
  3, 0.0%, -10%, 2%
[35] COc1ccc(CC(=O)O)cc1O
  -10, -2.0%, 5%, 0%
[36] COC(=O)Cc1c(C)nc2nc(NCc3ccccc3OC)[nH]n2c1=O
  -2, 0.6%, 1%, -2%
[37] COc1ccc(Nc2ccc(N3C(=O)CC(C)C3=O)cc2[N+](=O)[O-])cn1 (centres undefined)
  -6, 13%, -4%, 2%
[38] Cc1ccc(/C=N/n2c(-c3ccncc3)n[nH]c2=S)cc1
  -1, -0.2%, 10%, 0%
[39] CCc1ccc(-n2c(=O)c3ccccc3n(CC(=O)NCc3ccco3)c2=O)cc1
  5[21.1 µM], ?, 0%, -1%
[40] COc1ccc2nc(C)cc(SCC(=O)O)c2c1
  1&-2, -0.7%&5.6%, -1%&13%, -6%&-3%
[41] Cc1ccccc1N1C(=S)NC2c3ccccc3OC1(C)C2C(=O)N(C)C (centres undefined)
  1, -6.4%, -4%, 0%
[42] C=CCN(c1ccc(C(=O)Nc2ccc(NC(C)=O)cc2)cc1)S(C)(=O)=O
  -3, -0.1%, 10%, 2%
[43] O=C(c1cccs1)N(c1cccc(Cl)c1)C1C=CS(=O)(=O)C1 (centres undefined)
  -5, -3.3%, 1%, -3%
[44] CCS(=O)(=O)c1ccc(O)c(NC(=O)c2ccc(S(=O)(=O)N3CCCCCC3)cc2)c1
  ., 0.3%, 16%, .
[45] CC(Sc1ccccc1)C(=O)N1CCN(S(=O)(=O)c2ccccc2)CC1 (centres undefined)
  ., -1.0%, -14%, -5%

Grouped by structure: the entries above containing a thiophene ring, fused or not.
Every second line gives: GLA inh pH 4.5, Rango complex inh, Rango release inh, miR-21 reporter
[1] Cn1nc(-c2ccccc2)c2cc(C(=O)O)sc21
  -3, 1.1%, 13%, 0%
[7] Cc1ccc(-n2c(C)nc3ccsc3c2=O)cc1
  ., -0.1%, 2%, .
[12] Cc1cc(C)c(-n2nnnc2SCC(=O)c2cccs2)c(C)c1
  -6, ?, 0%, 1%
[43] O=C(c1cccs1)N(c1cccc(Cl)c1)C1C=CS(=O)(=O)C1 (centres undefined)
  -5, -3.3%, 1%, -3%

(list continues)
46	COc1ccc(-c2[nH]ncc2C=O)cc1OC
47	O=C(CCSc1ccccc1)N1CCN(C(=O)c2ccco2)CC1
48	Cc1cnn(C(=S)NCCc2ccccc2)c1
49	CC1(C)CC(=O)C2=C(C1)N(c1ccccc1)C(=O)CC2c1ccc(O)cc1 (centres undefined)
50	CSc1ccc(S(=O)(=O)N2CCC(C(=O)NCc3ccco3)CC2)cc1
51	O=C1CC2(CCCC2)C(=O)N1CN1CCN(S(=O)(=O)c2ccc(F)cc2F)CC1
52	O=S(=O)(c1cccc(C(F)(F)F)c1)N1CCCC1c1cccnc1 (centres undefined)
53	COc1ccccc1NS(=O)(=O)c1cc(NC(=O)C2=NNC(=O)CC2)ccc1C

compound no. | 46 | 47 | 48 | 49 | 50 | 51 | 52 | 53
GLA inh pH 4.5 | . | -3 | -13 | -1 | . | . | 2 | .
Rango complex inh | 4.5% | -0.8% | -1.7% | -0.8% | 3.2% | 3.3% | 0.9% | 0.1%
Rango release inh | -12% | -10% | 11% | -4% | 1% | 8% | 2% | 5%
miR-21 reporter | 0% | -39% | -54% | -1% | 7% | . | 1% | .

By substructure, the entries above with a nitro group on carbon (2)
34	O=C(Nc1ccc(N2CCN(C(=O)c3ccccc3)CC2)cc1)c1ccc([N+](=O)[O-])o1
37	COc1ccc(Nc2ccc(N3C(=O)CC(C)C3=O)cc2[N+](=O)[O-])cn1 (centres undefined)

compound no. | 34 | 37
GLA inh pH 4.5 | 3 | -6
Rango complex inh | 0.0% | 13%
Rango release inh | -10% | -4%
miR-21 reporter | 2% | 2%

5 entries out of the list, arranged by SMILES length, highest first:
51	O=C1CC2(CCCC2)C(=O)N1CN1CCN(S(=O)(=O)c2ccc(F)cc2F)CC1
49	CC1(C)CC(=O)C2=C(C1)N(c1ccccc1)C(=O)CC2c1ccc(O)cc1 (centres undefined)
50	CSc1ccc(S(=O)(=O)N2CCC(C(=O)NCc3ccco3)CC2)cc1
46	COc1ccc(-c2[nH]ncc2C=O)cc1OC
48	Cc1cnn(C(=S)NCCc2ccccc2)c1

compound no. | 51 | 49 | 50 | 46 | 48
GLA inh pH 4.5 | . | -1 | . | . | -13
Rango complex inh | 3.3% | -0.8% | 3.2% | 4.5% | -1.7%
Rango release inh | 8% | -4% | 1% | -12% | 11%
miR-21 reporter | . | -1% | 7% | 0% | -54%

(next part)
54	O=C(CSc1nc2ccccc2[nH]1)Nc1nc(-c2ccccc2)c(-c2ccccc2)o1
55	CCOC(=O)c1[nH]c(C)c(C(=O)OCC(=O)N2c3ccccc3CC2C)c1C (centres undefined)
56	COC(=O)CCCCC1SCC2NC(=O)NC21 (centres undefined)
57	c1ccc(-c2noc(-c3cccc4ccccc34)n2)cc1
58	COc1ccc(N2C(=O)CC(N3CCC(O)(c4ccc(Cl)cc4)CC3)C2=O)cc1 (centres undefined)
59	Cn1nnnc1SCC(=O)Nc1sccc1C(N)=O
60	Cc1c(C(=O)O)sc(=S)n1-c1ccccc1
61	CC(C)(C)c1cnnn1-c1ccc(NC(=O)c2ccc3c(c2)OCO3)cc1

compound no. | 54 | 55 | 56 | 57 | 58 | 59 | 60 | 61
GLA inh pH 4.5 | 3 | -2 | 3 | 5 | 2 | . | 3 | -3
Rango complex inh | -0.3% | -2.8% | 3.7% | -1.2% | ? | -1.2% | 3.2% | 0.3%
Rango release inh | 2% | -8% | 5% | 0% | 4% | 5% | 0% | -24%
miR-21 reporter | -9% | -8% | -2% | -53% | -4% | . | 1% | -25%

62	Cc1cccc(C)c1NC(=O)C(Cl)C(=O)c1ccccc1 (centres undefined)
63	COc1ccc(NS(=O)(=O)c2cc3c(cc2C)N(C(C)=O)CCO3)cc1
64	CSc1nc(C)cc(C)c1C(N)=O
65	CCCCNC(=O)CCn1c(=O)c2ccccc2n(CC(=O)NCCc2ccc(OC)c(OC)c2)c1=O
66	Cn1c(N)c(C(=O)CSc2nnc(-c3c[nH]c4ccccc34)n2C2CC2)c(=O)[nH]c1=O
67	Cc1ccc(C)c(N2CCN(C(=O)CCCn3c(=O)c4cccn4c4cccnc43)CC2)c1
68	O=C1CCC[C@@H]2Cc3nc4cc5c(cc4cc3[C@@H]3CCN1[C@H]23)OCO5
69	Cc1cc(NC(=O)c2cnn3c(C(F)F)cc(C4CC4)nc23)no1
70	CC(C)c1ccc(OCC(=O)N2CCCCCC2)c(Br)c1
71	CN1CCN(C(=S)Nc2cccc(Cl)c2)CC1
72	CCOc1ccccc1NC(=O)CSCC(=O)Nc1ccccc1

compound no. | 62 | 63 | 64 | 65 | 66 | 67 | 68 | 69 | 70 | 71 | 72
GLA inh pH 4.5 | . | . | 1 | 3 | . | . | . | -5 | 4 | 6 | -1
Rango complex inh | -0.4% | -0.9% | 4.9% | -0.5% | -6.1% | -0.7% | 0.3% | 3.3% | -0.1% | -3.4% | -0.6%
Rango release inh | 11% | 0% | 2% | 6% | -12% | 28% | -16% | 14% | 6% | 49% | 4%
miR-21 reporter | 10% | 0%&5% | -1% | -2% | . | 5% | . | 1% | -51% | -6% | -1%

The list is partial; the hit share may differ from the screen's.
